Source: PubChem BioAssay
TRPML1 ag: qHTS for Agonists of the Human Mucolipin Transient Receptor Potential 1 (TRPML1); Mucolipin-1 (Homo sapiens), Q9GZU1; TRPML1-expressing cells, Ca2+ dye fluorescence, FDSS; host cell line not named in the record; reference of the full effect not given here; activation, % (test concentration not listed); hit rate 0.12% among 410,000; AID 624414, 2012; in the data active = activation above about 50%; inconclusive = about 30% to 50%; inactive = below about 30%; note: 0% is about no effect; the text of the record puts the active cut at 80%
Target sequence (Q9GZU1 whole entry, looked up): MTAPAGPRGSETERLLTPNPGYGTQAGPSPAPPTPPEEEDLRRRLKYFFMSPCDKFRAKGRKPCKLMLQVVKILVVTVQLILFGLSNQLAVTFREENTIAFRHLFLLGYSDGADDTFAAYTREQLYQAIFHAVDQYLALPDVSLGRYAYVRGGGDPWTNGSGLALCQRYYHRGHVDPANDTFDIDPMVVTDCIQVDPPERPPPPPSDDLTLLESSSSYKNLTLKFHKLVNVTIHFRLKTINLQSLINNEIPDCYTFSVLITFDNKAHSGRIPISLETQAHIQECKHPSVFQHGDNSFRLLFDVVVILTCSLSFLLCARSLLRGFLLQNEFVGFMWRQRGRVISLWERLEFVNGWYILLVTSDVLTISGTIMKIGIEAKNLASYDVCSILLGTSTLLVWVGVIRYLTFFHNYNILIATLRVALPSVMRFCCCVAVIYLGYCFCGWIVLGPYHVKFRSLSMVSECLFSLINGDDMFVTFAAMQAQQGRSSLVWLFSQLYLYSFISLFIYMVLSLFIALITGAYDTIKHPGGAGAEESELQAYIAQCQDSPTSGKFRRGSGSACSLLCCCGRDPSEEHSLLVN
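Calcium fluorescence on an FDSS kinetic reader gave the read-out. Tet-induced TRPML1-DL cells were plated overnight, dye-loaded (Ca8 with quencher, 45-90 min, room temperature, dark), then read 110 s after compound addition, and again 110 s after 4uM final 54-4 (EC80).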
TRPML1 blocker: qHTS for Inhibitors of the Human Mucolipin Transient Receptor Potential 1 (TRPML1). Mucolipin-1 (Homo sapiens), Q9GZU1. TRPML1-inducible cells, Ca2+ dye fluorescence, FDSS; active compounds read low; inhibition of EC80 agonist-evoked calcium signal. activity change, negative = inhibition, % (concentration not given with the values). hit rate 0.02% among 390,000. AID 624415, 2012; in the data active means activity change below about -50%; inconclusive means about -30% to -50%; inactive means above about -30%;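 note: stimulus is agonist 54-4 at its EC80 concentration; % is set by controls: 0 for no effect and ±100 for the full control effect; the text of the record puts the active cut at -80%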
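TRPML1-DL cells, Tet-induced overnight (~16 h, 37 °C) at 1,500 cells/well, were loaded with Ca8 no-wash dye plus quencher for 45-90 min at room temperature. Compounds were pinned during FDSS kinetic reading; agonist 54-4 at EC80 (4 uM final) then added.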
gsp ag: qHTS for Agonist of gsp, the Etiologic Mutation Responsible for Fibrous Dysplasia/McCune-Albright Syndrome: qHTS. Potency, µM (highest dose often 76.9 µM), without a hit: at the top dose activation (cAMP increase), hits mostly activators. hit rate 0.13% among 340,000. AID 624287, 2012. gsp mutant cells, cAMP HTRF, 30 min; control for the full effect not named in the record; active = well fitted activation curve with a large enough effect; inconclusive = small, poorly fitted or top-dose-only effect, or another doubt; inactive = no such curve, though single readings can be large or run the other way; cell line not stated here;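 note: phosphodiesterase inhibitor Ro 20-1724 added with compounds to block cAMP breakdown; potency is the fitted concentration of half-maximal effect; nearly all actives have a fitted effect of over 60% in size; about a fifth of the inactives were tested at one dose only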
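Cells stably selected in G418 were plated at 2000/well, grown 16-24 hr, then given compounds in DMSO with the PDE inhibitor […] (300 uM solution added) for 30 min at 37C; cAMP was read by HTRF.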
Menin MLL FP FL: qHTS Assay for Inhibitors Targeting the Menin-MLL Interaction in MLL Related Leukemias: Competition With Fluorescein Labeled MLL-derived Peptide; Fluorescence polarization, fluorescein-MLL peptide displacement from menin; FP activity change, % at 61.4 µM; 290,000 tested, under 10 active; AID 1766, 2009; inconclusive = falling polarisation curve, or a change in total fluorescence; inactive = total fluorescence flat and polarisation flat or rising; no compound was filed as active; the % refers to the polarisation; negative = inhibition;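 note: % of control where 0% means no effect; inhibitors lower the polarisation; unlabelled MLL peptide was the positive control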
ClpP mod: qHTS Assay for Activators of ClpP | ATP-dependent Clp protease proteolytic subunit (Bacillus subtilis (strain 168)), P80244 | purified B. subtilis ClpP, FRET peptide cleavage, 20 min | Potency, µM (highest dose often 57.5 µM), inactives show top-dose activity change, negative = active | hit rate 1.9% among 340,000 | AID 651965, 2013; active = well fitted falling curve with a large enough effect; inconclusive = small, poorly fitted or top-dose-only effect; inactive = no such curve, though single readings can be large or run the other way; note: potency is the fitted concentration of half-maximal effect; the source files actives as falling curves though it sought activators and does not explain the sign; nearly all actives have a fitted effect of over 65% in size; many hits overshoot -100%
Target sequence (P80244 whole entry, looked up): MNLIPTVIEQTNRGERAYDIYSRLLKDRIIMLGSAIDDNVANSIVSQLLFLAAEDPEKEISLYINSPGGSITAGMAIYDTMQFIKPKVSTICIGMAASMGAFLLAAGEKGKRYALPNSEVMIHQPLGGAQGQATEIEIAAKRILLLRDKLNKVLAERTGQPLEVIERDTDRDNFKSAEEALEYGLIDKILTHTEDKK
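ClpP 10 microg/mL final, pH 8 Tris/KCl buffer with BSA, glycerol, Tween-20; compound pinned in; FRET-FV substrate; RT 20 min; Ex320/Em430; ΔFRET vs ADEP 5.8 microM, DMSO, no enzyme.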
gsp antag: qHTS for Antagonists of gsp, the Etiologic Mutation Responsible for Fibrous Dysplasia/McCune-Albright Syndrome: qHTS | gsp-mutant cells, cAMP HTRF, 30 min; control for the full effect not named in the record | Potency, µM (titrated, usually from 76.9 µM), for the others: top-dose activity change, negative = inhibition, usual class: inhibitors | hit rate 0.4% among 340,000 | AID 624288, 2012; active = falling curve of any shape with a large fitted effect; inconclusive = falling curve, mostly with a smaller effect; inactive = flat or rising curve; cell line not stated here;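 note: intracellular cAMP measured with PDE inhibitor Ro 20-1724 present during compound exposure; potency is the fitted concentration of half-maximal effect; % is set by controls: 0 for no effect and ±100 for the full control effect; nearly all actives have a fitted effect of over 65% in size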
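G418-selected cells were plated in DMEM/10% FBS for 16-24 h at 37C, then treated with compounds plus the PDE inhibitor […] (300 uM solution added) for 30 min at 37C. Intracellular cAMP was measured by HTRF after 30 min lysis at room temperature.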
* hit, by the source's call; ? = inconclusive; . = no result given; & = joins results of further samples; [ ] = dose if it differs, or a comment. Compounds as they come. About 2.1% of those tested had a hit in this group.

SMILES	TRPML1 ag	TRPML1 blocker	gsp ag	Menin MLL FP FL	ClpP mod	gsp antag
O=C1CC(c2ccc(S(=O)(=O)NCc3ccccc3)cc2)CN1 (stereo not drawn)	1.3	8	-45%[inhibitor]	3.2	1.4%	8%
COC(=O)c1ccc(-n2nnnc2SCc2ccccc2OC)cc1	0.1	3	15%	-0.7	-6.2%	-8%
COc1ccc(/C=N/NC(=O)C(C)n2cnc3ccccc3c2=O)cc1 (stereo not drawn)	-0.2	-16	-11%[15.4 µM]	4.3	2.9%	10%
CCC(=O)N1CCCC(C)(C(=O)Nc2nccc3ccccc23)C1 (stereo not drawn)	0.4	?	.	.	-17%	.
CCOc1ccc(/C=N/NC(=O)c2ccccc2O)cc1CN1CC2CC(C1)c1cccc(=O)n1C2 (stereo not drawn)	-0.7	10	.	.	-4.2%	35µM*
COc1ccc(OC)c(CN2CCN(CCCc3ccccc3)C(CCO)C2)c1 (stereo not drawn)	0.5	7	-3%	-3.8	-6.2%	-11%
C=CCc1cccc(/C=N/NC(=O)CNc2cccc3ccccc23)c1O	-0.3	-22	-8%	14	5.4%	-12%
C/C(=N/N=C1/NC(=O)CC(C(=O)Nc2ccccc2)S1)c1cccs1 (stereo not drawn)	-0.1	5	-24%	3.3	1.7%	-4%
CCN(c1ccccc1)c1nnc(NC(=O)Nc2cccc(Cl)c2C)s1	-0.4	-4	.	.	-0.5%	.
CCCn1c(N2CCN(CC(=O)c3c(C)n(C)c4ccc(OC)cc34)CC2)nc2c1c(=O)[nH]c(=O)n2C	-0.3	6	1%[15.4 µM]	-7.3	1.6%	-6%
CC(C)c1nc(SCC(=O)c2ccccc2)c2c(=O)n(C)c(=O)n(C)c2n1	0.1	-5	-19%	4.2	0.7%	9%
COc1ccc(N(C)S(=O)(=O)c2ccc3c(c2)NC(=O)CC(=O)N3)c(OC)c1	0.2	19	?	.	-3.0%	4%
CCSc1ncnc2c(C#N)c3n(c12)CCCCC3	1.1	12	46%	1.8	-3.1%	-3%
CN(C(=O)CSCC(=O)O)C1CCCCC1	-0.3	-7	-22%	-0.2	?	6%
COc1ccccc1CC(=O)Nc1ccc(S(=O)(=O)N2CC(C)CC(C)C2)cc1 (stereo not drawn)	1.5	-4	40%	.	-1.2%	?
CCN1C(=NCc2ccc(OC)cc2)N[C@@H](c2ccccc2)C(C(=O)OC)=C1C	-0.4	14	.	-6.1&-22	0.3%	7%
CS(=O)(=O)c1ccc(C(=O)NCC2(N3CCCCC3)CCCCC2)cc1	-0.4	-9	-9%[15.4 µM]	-1.4	-1.2%	10%
COc1cccc(C2=NO[C@@H]3C(=O)N(Cc4ccccc4)C(=O)[C@H]23)c1OC	-0.4	-6	16%	22	5.2%	-22%
Cc1ccc2c(CN3CC(C)CC(C)C3)cc(=O)oc2c1C (stereo not drawn)	1.3	19	-11%[15.4 µM]	-5.3	-4.0%	-4%
Cc1ccc(S(=O)(=O)NCc2ccccc2)cc1C(=O)NC(C)c1ccc(S(N)(=O)=O)cc1 (stereo not drawn)	1.5	-21	9%[15.4 µM]	.	.	7%
Cc1ccccc1NS(=O)(=O)c1cc(C(=O)NCCC2=CCCCC2)ccc1Cl	0.5	17	-5%	-1.8	0.6%	?
Cc1cc(C)cc(NC(=O)C(=O)NCC(c2ccc3c(c2)OCO3)N2CCN(C)CC2)c1 (stereo not drawn)	-0.7	-2	.	.	-1.8%	.
CCOc1ccc(NC(=O)CSc2nc3c(c(=O)n2-c2ccccc2OC)SCC3)cc1	0.3	12	?	5.2	-5.7%	-3%
COc1ccc(S(=O)(=O)N(CC(=O)NCC2CCCO2)Cc2ccccc2)cc1 (stereo not drawn)	-0.2	26	6%[15.4 µM]	5.0	-1.2%	-4%
Cc1c(C)c2ccc(OCC(=O)NCCCN3CCCC3=O)cc2oc1=O	0.5	-13	-29%	.	4.1%	-3%
Going on with the list.
SMILES	TRPML1 ag	TRPML1 blocker	gsp ag	Menin MLL FP FL	ClpP mod	gsp antag
O=C(OCc1ccccc1)c1cnc(Cl)c(Cl)c1	-0.4	10	-10%[15.4 µM]	.	.	-11%
O=C1N(c2ccccc2)CCN1c1ccccc1	.	.	3%	2.8	-1.8%	5%
Cc1cc(NC(=O)CN2CCCCC2C)no1 (stereo not drawn)	0.5	0	-27%	-0.1	-0.2%	3%
Cc1ccc(C)c2c(SC(C)C(=O)NCc3ccco3)nc(-c3ccccc3)nc12 (stereo not drawn)	-0.8	3	-29%	-1.3	1.5%	?
CCOc1ccc(OCC)c(NC(=O)Cn2ncc3c4ccccc4n(Cc4ccccc4)c3c2=O)c1	1.0	-6	.	.	-2.2%	.
O=C(CCNS(=O)(=O)c1ccc(Cl)cc1)N1CCN(c2ncccn2)CC1	-0.5	-28	-4%	.	-7.5%	-1%
Cc1cccc2cc(CN(Cc3cccs3)C3(c4nnnn4C4CCCC4)CCCC3)c(=O)[nH]c12	0.3	5	0%	1.4	0.4%	0%[15.4 µM]
Cc1cccc(C(=O)NCCCNC(=O)c2ccccn2)c1	0.0	10	11%	.	.	7%
CC(C)C(c1nnnn1CC1CCCO1)N1CCN(C2CCCC2)CC1 (stereo not drawn)	0.1	4	-5%	0.1	0.5%	5%[15.4 µM]
CC1=CC(=O)C(C(C)C)=C/C1=N/OC(=O)c1cccc([N+](=O)[O-])c1	0.8	12	?	-0.2	0.6%	0%
O=C1CCC/C1=C\c1ccccc1	1.7	-3	-15%	3.0	1.7%	-2%
COc1ccc(S(=O)(=O)N2CCOCC2)cc1C(=O)Nc1cccc(C(=O)NC2CC2)c1	-0.2	21	19%	.	-2.3%	.
O=C(O)c1ccc(N2CCCCC2)cc1	-0.5	4	14%	3.9	0.3%	6%
O=C1C2C3c4ccccc4C(c4ccccc43)[C@@H]2C(=O)N1c1ccccn1 (stereo partly drawn)	-0.1	7	0%[15.4 µM]	-0.1	-1.0%	-29%
COC(=O)C1=NN(C(C)=O)C2(CC(=O)N(c3cc(C)cc(C)c3)C2=O)C1 (stereo not drawn)	-0.4	11	15%[15.4 µM]	.	2.2%	5%
Cc1ccc(N2CCN(C(=O)c3cn(C)c4ccc(S(=O)(=O)N5CCC(C)CC5)cc4c3=O)CC2C)cc1 (stereo not drawn)	?	-4	.	.	0.0%	.
Cc1c(C(=O)N2CCOCC2)c(S(=O)(=O)Nc2cccc(C#N)c2)c(C)n1C	-0.5	10	?	2.6	-1.4%	2%
N#C/C(=C(/O)COC(=O)CCCNC(=O)c1ccc(Cl)cc1)c1nc2ccccc2[nH]1	1.1	16	13%	?	-4.1%	-6%
O=C(NCCc1ccccc1)c1ccc([N+](=O)[O-])cc1	0.4	3	-4%	0.6	-3.4%	7%
CCc1ccc(N2C(=O)CC(N(CC3CCCO3)C(=O)/C=C/C(=O)O)C2=O)cc1 (stereo not drawn)	-0.3	-4	6%	-1.3	0.7%	10%
COc1ccc(C(=O)NNC(=O)CSc2nnc(COc3ccccc3OC)n2C)cc1	0.0	12	5%	-2.9	-3.7%	14%
Cc1cc(CC(=O)O)n(C)c1C(=O)c1ccc(Cl)cc1	0.3	1	.	-0.9	-0.1%	-21%
Cc1n[nH]c(C)c1N1C(=O)c2cccc3cc(Br)cc(c23)C1=O	-0.8	13	8%	5.3	-2.6%	-5%
CCCCn1c(N)c(N(CC(C)C)C(=O)CSCc2c(C)noc2C)c(=O)[nH]c1=O	1.7	1	-1%[15.4 µM]	.	28µM*	7%
Cc1cc(C)cc(NS(=O)(=O)c2ccc(N3CCCCS3(=O)=O)cc2)c1	-0.7	9	.	.	-2.2%	.
The list continues:
SMILES	TRPML1 ag	TRPML1 blocker	gsp ag	Menin MLL FP FL	ClpP mod	gsp antag
COc1ccc(C(=O)C2CCCN(Cc3cnc(N4CCOCC4)s3)C2)cc1F (stereo not drawn)	-0.1	17	9%[15.4 µM]	0.6	.	2%
COc1ccc(CCNC(=O)COC(=O)c2cc(Cl)nc(Cl)c2)cc1	0.7	56	16%	.	-1.4%	2%
CC(=O)c1c(C)[nH]c(C(=O)NCCc2ccccc2)c1C	0.0	17	-27%	0.8	-1.2%	-5%
C=CC[C@@H](CC(=O)N(CCO)Cc1ccccc1)C(=O)N[C@H](COC(=O)[C@@H](CC=C)CC(=O)OC(C)(C)C)c1ccccc1	1.5	16	.	.	-1.3%	-14%
CC(=O)c1ccc(NC(=O)CSc2nnc(-c3ccco3)o2)cc1	0.4	2	1%[15.4 µM]	.	.	2%
Cc1ccc(C)c(-c2ccc(=O)n(Cc3ccc(F)cc3Cl)n2)c1	5.2&4.3	52&48	11%[15.4 µM]	4.2	-4.7%	3%
CCOC(=O)c1cc2c(=O)n3ccccc3nc2n(CCOC)c1=NC(=O)c1c(-c2c(F)cccc2Cl)noc1C	-1.0&2.5	12&-3	9%[15.4 µM]	0.3	3.9%	-26%
CSc1cccc(NC(=O)C2CCN(S(C)(=O)=O)CC2)c1	0.3	5	-48%[inhibitor]	-1.1	0.0%	4%
CCOC(=O)c1cc(-c2cccc([N+](=O)[O-])c2)on1	-0.2	5	?	-1.9	.	5%
Cc1cccc(/C=N\NC(=O)c2sccc2-n2cccc2)c1	3.1	21	-3%	2.1	1.5%	-7%[15.4 µM]
CSCCC(NC(=O)c1ccc([N+](=O)[O-])cc1Cl)C(=O)OC(C)C(=O)NCc1ccco1 (stereo not drawn)	0.4	3	-17%	.	-2.6%	-10%
CC(NC(=O)CSc1ncn[nH]1)c1ccc(Cl)cc1Cl (stereo not drawn)	-0.2	-6	-28%	0.6	.	-2%
Cc1ccc(S(=O)(=O)/N=C2/NC(=O)/C(=C\c3cc(Br)cc(Br)c3O)S2)cc1	?	-11	?	.	1.8%	-15%
CC(=O)Nc1cc(C(=O)O)ccc1S(=O)(=O)c1ccc(C)cc1	0.6	?	-4%	2.2	-11%	6%
COC(=O)Nc1nnc(COc2cccc(C)c2)s1	1.5	6	19%[15.4 µM]	-4.0	.	-33%
Cc1cc(C)c(NC(=O)CS(=O)CC(=O)N2CCN(c3ccccc3)CC2)c(C)c1 (stereo not drawn)	-0.2	-10	-26%	1.3	-0.6%	-1%
CCCCc1nn2c(=O)cc(COC(=O)c3cccs3)nc2s1	-0.9	-2	.	.	-1.8%	.
